NPYLR7 ag – agonists of mosquito NPYLR7 receptor, primary screen, cell-based, Aedes aegypti, calcium fluorescence, mosquito biting behavior; HEK293T NPYLR7/Galpha15, GCaMP6s calcium fluorescence; hit rate 0.15% among 270,000; activation, % at 10 µM; Aedes aegypti neuropeptide Y-like receptor 7 (NPYLR7); in the data active = activation above about 40%;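 also: 0% = vehicle and 100% = reference agonist at the receptor; some compounds past the cut are filed as inactive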
NPYLR7 ag max-min – second read-out of NPYLR7 ag, no call of its own (marks repeat the call); activation, %; measured here: Max-Min RFU normalised activation; some inactives read as strong as hits;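 span of the calcium signal over five minutes; 0% = vehicle and 100% = native peptide agonist; compound fluorescence can raise it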
* marks the source's active call; other numbers are inactive results; & = joins results of further samples. This is a subset; count on the stated rates, not on these rows.

SMILES	NPYLR7 ag	NPYLR7 ag max-min
Cn1cc(-c2nc(CS(=O)(=O)CC(=O)NC3CCCC3)cs2)cn1	0	11
CCCCCC(=O)NN=Cc1ccc([N+](=O)[O-])o1	2	7
Cc1cccc(Cn2ccnc2CN(CC(C)C)C(=O)C(C)C)c1	4	4
Cc1ccc(CNCCNCC(C)O)cc1 (stereo not given)	-18	-21
O=C(CSc1nnc(NC2CC2)s1)Nc1ccccc1	12	6
CC(NC(=O)CSCc1ccc(F)cc1)c1ccc(S(N)(=O)=O)cc1 (stereo not given)	1	1
CCc1csc(CNC(=O)c2ccc(N3CCCNCC3)nc2)n1	2	0
COc1ccc(C2CC(=O)c3cn4nc(C)nc4nc3C2)c(OC)c1 (stereo not given)	0	1
COc1cccc(CN2CCNC(=O)C2CC(=O)NCCc2cn3ccccc3n2)c1OC (stereo not given)	19	4
O=C(Cc1cccnc1)N1CCC(c2cc(Cc3ccccc3)[nH]n2)CC1	6	-5
CCn1cnnc1CNC(=O)c1cnccn1	0	2
Cc1cccn2cc(COc3ccccc3C(=O)NC3CCCCCC3)nc12	4	2
O=C(C(c1ccccc1)c1ccccc1)N(C1CC1)C1CCS(=O)(=O)C1 (stereo not given)	24	26
Clc1ccc2nc(Nc3ccccc3Cl)nc(-c3ccccc3)c2c1	-1	-8
CC(=O)NCc1ccc(-c2csc(NC(=O)c3csc4c3CCCC4)n2)o1	8	12
CCC1CCC(NC(=O)C(C)n2cccn2)(C(=O)OC)CC1 (stereo not given)	10	9
O=C1c2ccccc2C(=O)c2c1ccc(C(=O)NC1CCCCC1)c2[N+](=O)[O-]	3	5
COCCN(Cc1ccccc1OS(C)(=O)=O)C(=O)c1ccco1	-10	-4
Cc1cccc(CN2C(=O)C3(c4ccccc42)N(c2ccc(F)c(Cl)c2)C(=O)CS3(=O)=O)c1 (stereo not given)	-3	-8
Cn1c(=NN=C2C(=O)Nc3ccc(F)cc32)sc2ccccc21	1	46
CN1CCN(C(CNC(=O)NC(C)(C)C)c2ccsc2)CC1 (stereo not given)	-9	-11
CC(C)CC(=O)N(Cc1nccn1Cc1cccc(C(F)(F)F)c1)CC1CC1	3	11
O=C(c1cc(F)ccc1F)C1CCCN(C(=O)CN2C(=O)c3ccccc3C2=O)C1 (stereo not given)	21	10
CC(=O)N1CCc2cc(S(=O)(=O)Nc3ccc(C)c(Cl)c3)ccc21	2	6
CCC(Oc1ccc2c(c1)CCCC2)C(=O)Nc1ccccc1-c1nn[nH]n1 (stereo not given)	9	8

Carrying on:
SMILES	NPYLR7 ag	NPYLR7 ag max-min
CCc1cc2c(=O)n(CC(O)COc3c(C)ccc(C)c3C)cnc2s1 (stereo not given)	3	1
Cc1ccc(-c2nc(C(=O)N(C)Cc3nnc4n3CCCCC4)cs2)o1	-4	-6
COc1ccc(C)cc1C(=O)Nc1ccc2c(c1)OCCCO2	-1	-4
Cc1sc2nc(CSc3ccc4c(c3)OCCCO4)nc(N)c2c1C	0	-1
COCCNCc1csc(COc2ccccc2C(C)C)n1	-8	-5
O=S(=O)(CCNS(=O)(=O)c1cccs1)NCC1CCC1	9	5
COc1ccc(OC)c(C2CC(c3ccc(C)c(C)c3)=NN2C(=O)CN2CCCCC2C)c1 (stereo not given)	-2	3
O=C(CS(=O)(=O)Cc1cscn1)NCCC1CCCCC1	13	9
O=[N+]([O-])c1ncn(C23CC4CC(CC(C4)C2)C3)n1	-5	-9
O=C(c1cccc(CSc2nc(Cl)cc(N3CCOCC3)n2)c1)N1CCC2(CC1)OCCO2	14	22
CC(O)CN1CCN(C(=O)C(C(C)C)N2CC(C)OC(C)C2)CC1 (stereo not given)	3	-18
CNC(=O)NC(=O)CSc1nnc(-c2ccco2)n1C	-2	-3
Cc1cc(Nc2ccccc2)nc(N2CCN(C(=O)c3cccc4ccccc34)CC2)n1	6	5
NC(=O)c1nc(-c2ccncc2)nc2c1[nH]c(=O)n2-c1ccc(Cl)c(Cl)c1	-2	3
CC(=O)N1CCC(C(=O)NC(c2cccs2)c2ccccc2C)CC1 (stereo not given)	-3	-4
Cc1cc(C)nc(NNC(=O)CCC2CCCC2)n1	7	5
O=C(/C=C/c1cnc[nH]1)N(CC1CCN(C2Cc3ccccc3C2)CC1)CC1CCCO1 (stereo not given)	-1	-6
C#CCOc1ccc2ccccc2c1Br	4	2
Cc1cccc(CSc2nnc(C(Cc3ccccc3)NC(=O)COc3ccc(Cl)cc3)n2-c2ccc([N+](=O)[O-])cc2)c1 (stereo not given)	15	21
O=C(c1cccs1)N(CCCn1ccnc1)c1nc2ccc(Cl)cc2s1	-5	-13
CC(=O)c1ccccc1-c1ccc2ccccc2n1	7	5
Cc1cc(OCC(=O)O)c(C)c2c1CC[C@@H]([C@H](C)C(=O)N1CCC(O)CC1)C2	0	-10
COC(=O)c1cc(OCC2CCC2)cc(C(=O)N2CC[C@H](CO)[C@H](O)C2)c1	-1	16
Cc1noc(C)c1C=Cc1ccc2ccccc2n1	2	1
CCCSc1ncccc1C(=O)NCc1ccc(OC)cc1OC	2	-4

Further entries follow:
SMILES	NPYLR7 ag	NPYLR7 ag max-min
NC1CCC(C2CC(=O)Nc3n[nH]c(-c4cccs4)c32)CC1 (stereo not given)	-5	-10
CCN(CC)C(=O)C1CCCN1C(=O)CCc1ccc(F)cc1 (stereo not given)	2	0
COCc1nn2c(nnc3c(=O)n(CCc4cccs4)ccc32)c1-c1ccccc1	20	17
COc1cc(CN(C)Cc2cccc3ncccc23)cc(F)c1O	-8	-9
CC(C)c1nc(C#N)c(N/N=C\c2ccccc2)o1	-9	-13
CC(C)CC(=O)Nc1nnc(COc2ccccc2Cl)s1	2	2
Cc1cc(C(=O)N2CCCC(C(=O)c3ccc(-c4ccccc4)c(F)c3)C2)nc(C)n1 (stereo not given)	3	-7
Cc1occc1C(=O)N(C)C(Cc1ccccc1)C1CCN(C(=O)c2ccc3nccnc3c2)CC1 (stereo not given)	12	0
O=C1c2ccccc2C(=O)c2c1ccc1c(=O)n(Cc3ccccc3)[nH]c21	3	2
CC(C)NC(=O)NC(=O)COC(=O)C1CC1	0	0
Cc1cc(C(=O)CSc2nnnn2C2CCCC2)c(C)n1C1CC1	-1	-1
COCCN(CC(=O)N(CCc1c[nH]c2ccccc12)Cc1ccc(F)cc1)C(=O)c1ccccc1C	0	18
COc1ccc(S(=O)(=O)N2CCC(Cc3ccccc3)CC2)cc1N1CCN(C(=O)CSc2ccccc2)CC1	4	4
COC(=O)c1cc(NCC(=O)NC2CCC(C)CC2)c(F)cc1F (stereo not given)	2	3
COC(=O)C1=C(C)NC(=O)NC1c1cccc(I)c1 (stereo not given)	0	-4
O=C(NCC(O)c1ccc2ccccc2c1)C1CCOC1 (stereo not given)	0	0
COc1cccc(-c2nc(C(N)=O)c3[nH]c(=O)n(-c4cccc(Cl)c4)c3n2)c1OC	4	12
Cc1cc(CNC(=O)C(C)n2cccn2)c2[nH]c(-c3ccccc3)c(C)c2c1 (stereo not given)	8	3
CNC(=O)c1nnc2n1CCN(C(=O)CCc1ccccc1)C2	7	4
Cc1ccc(Oc2ncccc2CNC(=O)C2Cc3ccccc3C(=O)N2)cn1 (stereo not given)	-3	-5
Cc1ccc(C2(C)NC(=O)CS2)cc1 (stereo not given)	-3	-6
Cc1nn(C)c(C)c1C(C)NC(=O)c1ccc(OC2CCN(Cc3ccccn3)CC2)cc1 (stereo not given)	3&9	-1&4
COc1cn(CC(=O)Nc2ccc(C(F)(F)F)cc2)c(CSc2ncccn2)cc1=O	-5	-10
Cc1ccc(C(=O)N2CCN(S(=O)(=O)c3ccc(Cl)c(C(F)(F)F)c3)CC2)o1	6	15
O=c1[nH]c(CN2CCOCC2)nc2cc(C(F)(F)F)ccc12	4	1

Later entries:
SMILES	NPYLR7 ag	NPYLR7 ag max-min
O=S1(=O)N=C(Cc2cccs2)Nc2ccccc21	6	5
COc1ccc(-c2nn(-c3ccccc3C)cc2CNCCN2CCOC2=O)cc1F	0	-9
COC(=O)N1CCC(NC(=O)c2ccc(OC)cc2F)C1 (stereo not given)	-5&-7	-6&-8
COCCCN(CC(=O)N(Cc1cccn1Cc1ccccc1)C1CCCCC1)C(=O)c1ccc(C(F)(F)F)cc1	-1	6
CC(C)N1CCn2nc(C(=O)N3CCCCC3CCN3CCOCC3)cc2C1 (stereo not given)	3	3
CC(C)c1ocnc1C(=O)N1CCC(NC2CCCC2)CC1	1	0
Cc1noc(C2CCN(C(=O)NCC3(c4cccc(Cl)c4)CCCC3)CC2)n1	-3	209
Cc1ccc2nc(SCC(=O)NCc3ccc4c(c3)OCO4)nc(=O)n2c1	3	1
CC(NC(=O)C1(c2ccc(Cl)cc2)CCC1)c1cnn(C)c1 (stereo not given)	4	2
COc1ccc(-c2nn(-c3ccccc3)cc2CN(C)Cc2csc(C)n2)c(F)c1	9	10
CCCOc1ccc(NC(N)=Nc2nc(C)cc(C)n2)cc1	0	-6
Cc1ccccc1C(=O)N1C(C(=O)NCc2cccc(C(F)(F)F)c2)COC12CCN(C(=O)c1ccco1)CC2 (stereo not given)	0	6
CN(CCS(=O)c1ccccc1)CC1CCCCO1 (stereo not given)	1	1
NNc1ccc2nncn2n1	-2	12
CNc1nc2c(c(=O)[nH]c(=O)n2C)n1Cc1ccccc1Cl	-6&-3	4&-5
O=C(Cn1ncc(=O)c2ccccc21)Nc1cccc(Br)c1	-7	-7
O=S(=O)(c1ccc2oc(=S)n(CN(Cc3ccccc3F)C3CC3)c2c1)N1CCOCC1	1	7
Cc1nnc(COC(=O)C(C)NC(=O)c2ccc(C(C)(C)C)cc2)o1 (stereo not given)	0	16
O=C(c1c(F)c(F)cc(F)c1F)N1CCN(c2nccc(-c3ccc(N4CCOCC4)cc3)n2)CC1	12	8
COC(=O)c1ccc2oc(=O)n(C3CCN(C(=O)c4cccc(C#N)c4)CC3)c2c1	24	13
Cc1nnsc1C(=O)N1CCN(c2nc3ccc(OC(F)(F)F)cc3s2)CC1	5	6
CC1(C)CC(=O)C=C(NCCN2CCNCC2)C1	4	1
CCCCCc1ccc(C(=O)CSc2nnc(NC(=O)COCc3ccccc3)s2)cc1	-4	12
Cc1cc(C)n(CCNS(=O)(=O)CCN2C(=O)CCCC2=O)n1	13	11
O=C(NCC(=O)N1CCCC(c2ccccc2)CC1)c1ccoc1 (stereo not given)	5	2

The listing continues.
SMILES	NPYLR7 ag	NPYLR7 ag max-min
Cc1cc(O)c(C(c2ccncc2)N2CCN(c3ccccc3)CC2)c(=O)n1Cc1ccccc1 (stereo not given)	0	-2
O=C(NCCc1cscn1)C1(c2cccs2)CCCCC1	-22	-26
COc1ccc(C)cc1CCNC(=O)C(C)NS(=O)(=O)c1ccccc1F (stereo not given)	-5	-5
Cc1c(F)cccc1NC(=O)CNC(C)(C)Cc1ccc(F)cc1	0	-5
O=C(c1cccc2cccc(O)c12)N1CCCCC1	0	-2
O=C(NCC1CCCO1)C(C1CCCC1)N1CCN(C(=O)c2ccccc2Cl)CC1 (stereo not given)	-6	0
O=C(NC(c1ccc(-c2ccccc2)cc1)c1cnccn1)C1CCN(Cc2cccc(C(F)(F)F)c2)CC1 (stereo not given)	3	4
CC(C)CNC(=O)C(C)Sc1nnc(N2CCOCC2)n1-c1ccccc1 (stereo not given)	-4	-7
CC(C)OC(=O)c1cc(NC(=O)C2(Cn3ccnc3)CC2)ccc1Cl	19	6
CCOC(=O)C1=CNc2nncn2C1(O)C(F)(F)F (stereo not given)	3	6
COc1ccc(-c2cc(NCc3cccnc3)nc3[nH]ccc23)cn1	1	-2
CCCC(C)c1nc(C(N)=O)c2[nH]c(=O)n(-c3ccc(OC)c(OC)c3)c2n1 (stereo not given)	15	8
O=c1cc(O)c2sc(Nc3ccc(F)cc3)nc2[nH]1	-5	-5
Cc1cc(NS(=O)(=O)C(F)(F)F)ccc1C(=O)NC(C)C(C)(C)C (stereo not given)	-2	-3
O=c1c2ccccc2nc2c3ccccc3c(NN=Cc3cccs3)nn12	-1	-3
COc1cccc(Cc2nsc(Oc3ccc(CC(=O)NCCc4ccc(Cl)cc4Cl)cc3)n2)c1	30	26
Fc1ccc(C=NNc2ccc3ccccc3n2)cc1F	9	8
CCCCCc1ccc(C(=O)Nc2ccc(N3CCC(C)CC3)c(C(=O)NC3CCCCC3)c2)cc1	-6	-1

High-throughput results: PubChem BioAssay, Fisher Drug Discovery Resource Center
